Bioassay records: PubChem BioAssay, several laboratories
Yeast UUG start: alters start codon recognition fidelity in yeast. S. cerevisiae UUG-firefly luciferase reporter, luminescence/redox ratio. activity score, % at 18.7 µM. 0.13% of 350,000 active. AID 602363;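 active = replicate mean at a twofold rise or more, about +100% in these data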;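 also: firefly luciferase made from a UUG start codon reports start codon fidelity; reporter light over untreated wells divided by growth signal over untreated wells; some hits fall short of that in this replicate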
PABP polyA inh: PABP-poly(A) binding inhibition. P11940. PABP-poly(A) RNA binding, fluorescence polarization. inhibition, % at 35 µM. 1% of 290,000 active;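 active = 50% or more with normal probe brightness, or confirmed in later tests; about a fifth of its hits are not listed in these tables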;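 also: calls also rest on retests at 20 µM and on dose response follow-up; controls were probe without protein and protein plus probe with vehicle; some compounds called inactive have numbers as strong as hits; many hits fall short of the cut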
Target sequence (P11940 whole entry, looked up): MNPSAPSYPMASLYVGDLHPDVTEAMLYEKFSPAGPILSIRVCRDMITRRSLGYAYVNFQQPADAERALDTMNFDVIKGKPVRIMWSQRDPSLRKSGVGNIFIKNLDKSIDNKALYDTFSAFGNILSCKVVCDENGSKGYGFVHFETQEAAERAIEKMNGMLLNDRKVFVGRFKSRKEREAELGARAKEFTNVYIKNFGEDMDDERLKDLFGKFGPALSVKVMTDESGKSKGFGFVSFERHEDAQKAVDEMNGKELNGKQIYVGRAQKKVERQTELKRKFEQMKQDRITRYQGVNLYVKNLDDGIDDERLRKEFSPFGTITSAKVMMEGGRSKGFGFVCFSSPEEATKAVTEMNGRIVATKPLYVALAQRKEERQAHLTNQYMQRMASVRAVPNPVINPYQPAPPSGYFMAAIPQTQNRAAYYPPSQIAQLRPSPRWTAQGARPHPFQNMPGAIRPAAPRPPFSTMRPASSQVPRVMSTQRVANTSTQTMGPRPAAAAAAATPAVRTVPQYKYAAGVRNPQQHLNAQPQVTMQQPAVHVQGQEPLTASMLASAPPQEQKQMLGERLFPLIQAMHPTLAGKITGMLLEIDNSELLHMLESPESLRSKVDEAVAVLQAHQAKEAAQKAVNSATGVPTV
Env fusion inh: HIV envelope-mediated fusion inhibition | HeLa-JRFL Env/CEM21 cell fusion, luciferase | inhibition, % at 12.3 µM | 1.1% of 360,000 active;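 active = mean replicate inhibition score of at least 50 and every replicate individually at or above 50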;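 also: 0% = plate neutral controls and 100% = maraviroc near 300 nM; one replicate is shown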
Rce1 inh: blocks yeast Ras-converting enzyme | yeast membranes, quenched prenylated peptide cleavage fluorescence | calls only | 0.27% of 290,000 active | AID 2563;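 active = fall in fluorescence gain of 50% or more versus controls, with final raw signal at or below 3038400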;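 also: plate controls were neutral control wells for no effect and wells lacking membranes for full effect; tested at 10 µM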
Target sequence (Q03530 whole entry, looked up): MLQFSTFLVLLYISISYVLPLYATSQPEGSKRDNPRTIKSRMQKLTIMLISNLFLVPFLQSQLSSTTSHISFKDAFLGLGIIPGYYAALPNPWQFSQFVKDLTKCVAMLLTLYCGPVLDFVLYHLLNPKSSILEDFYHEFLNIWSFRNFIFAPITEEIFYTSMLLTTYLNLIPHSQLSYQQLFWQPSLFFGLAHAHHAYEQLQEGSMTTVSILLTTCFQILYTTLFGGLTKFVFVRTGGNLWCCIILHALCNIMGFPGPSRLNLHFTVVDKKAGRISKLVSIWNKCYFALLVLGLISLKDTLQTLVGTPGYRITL
MT1-MMP act inh: blocks activation of human MT1-MMP; HT1080 RFP-PRO-GFP cells, GFP/RFP ratio fluorescence, overnight; percent of plate control window, DMSO zero; GFP/RFP ratio change, % at 20 µM; 0.061% of 360,000 active;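 active = GFP/RFP ratio change of at least 30% with cell ATP level not reduced by more than half and red fluorescence within 50% of control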; also: strong numbers were not always called active
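Assay system: HT1080 RFP-PRO-GFP cells | Dosing: 20 µM single dose, 1% DMSO | Incubation: Cells overnight before dosing, compound overnight, 37 °C, 5% CO2 | Evaluation: GFP/RFP fluorescence ratio | Control set: DMSO-only wells and HT1080 RFP-L50D-GFP cell wells as references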
eIF4H FP inh: inhibitors of RNA binding by human eIF4H; Q15056; eIF4H fluorescence polarization binding assay; inhibition, % at 35 µM; 0.94% of 290,000 active; AID 2012;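 active = 50% or more with normal probe brightness, or confirmed in later tests; about a fifth of its hits are not listed in these tables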;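 also: calls also rest on retests at 20 µM and on dose response follow-up; 0% = protein and probe with vehicle and 100% = probe without protein; strong numbers were not always called active; many hits fall short of the cut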
CSC inhib: blocks cancer stem cells. cancer stem cell-like cells viability, luminescence. inhibition, % at 7.5 µM. 1.1% of 300,000 active. AID 2717;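 active = mean at 75% or more and at least half the replicates too; tested in HMLE shEcad cells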;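 also: 0% = median of negative and 100% = median of positive control wells; the first replicate is given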
eIF4H FP inh retest: second read-out of eIF4H FP inh, no call of its own (marks repeat the call); inhibition, %; compound at 20 µM; confirmation average;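 mean of two retest wells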
PABP polyA inh retest: second read-out of PABP polyA inh, no call of its own (marks repeat the call); inhibition, %; compound at 20 µM; confirmation repeats;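 mean of two retest wells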
MT1-MMP act inh RFP: further read-out of MT1-MMP act inh, marked with its call; RFP signal change, %; measured here: RFP expression control read;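 0 = vehicle wells; hits needed this value within 50% of zero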
An asterisk follows results filed as active; i = inactive; nt = not tested or not shown.

SMILES	Yeast UUG start	PABP polyA inh	Env fusion inh	Rce1 inh	MT1-MMP act inh	MT1-MMP act inh RFP	eIF4H FP inh	CSC inhib	others
Cc1ccc(C(=O)Nc2nccs2)cc1	-31.0	-2.8	-16.6	i	0.6	1.5	2.3	-10.7
c1coc(CN2CN=C(Nc3nc4ccccc4s3)NC2)c1	-13.8	-14.4	-22.6	i	1.5	2.7	-7.0	-6.4
O=C(CN1CCCCC1)Nc1ccc(S(=O)(=O)N2CCOCC2)cc1	-3.1	-4.7	-38.1	i	-2.2	-9.2	-2.3	-1.6
CCOC(=O)N1CCC(=NNC(=O)Cn2ccc(C(F)(F)F)n2)CC1	nt	8.1	-1.5	i	1.1	9.3	2.3	-0.7
CC(C)CCOP(=O)(c1ccc(N(C)C)cc1)C(Nc1ccccc1)c1ccc(N(C)C)cc1 (stereo unspecified)	-16.2	-5.6	34.6	i	-14.6	-16.0	-13.4	18.2
OCC1(Cc2ccccc2)CCCN(Cc2cn[nH]c2-c2ccccc2)C1 (stereo unspecified)	nt	-2.7	7.7	i	-3.4	1.2	0.7	4.2
COC(=O)c1ccc(NC(=O)CCOc2ccccc2)cc1	nt	-0.7	-9.6	i	1.7	1.8	-8.5	-2.2
CC(C)c1ccc(NC2CCCN(C(=O)CN3CCCC3=O)C2)cc1 (stereo unspecified)	-3.7	-3.7	4.0	i	4.6	0.3	-7.0	-4.4
CC1CC(C)CN(C(=O)C2CCN(S(=O)(=O)c3cccs3)CC2)C1 (stereo unspecified)	-3.4	5.3	4.4	i	-0.1	1.6	-10.7	-1.4
O=C(CSc1ccc(F)cc1)NCCc1ccc(Cl)cc1	-3.7	3.5	1.1	i	-1.0	2.6	-9.9	-6.4
COc1cnc(-c2ccccn2)nc1N(C)c1ccccc1	-40.7	-29.4	10.9	i	-13.0	-10.2	-0.4	98.3*
Cc1c(C(=O)OCC(=O)N(C)c2ccccc2)cccc1[N+](=O)[O-]	nt	0.5	4.1	i	1.3	-1.7	-2.5	-23.9
CN1c2ccc([N+](=O)[O-])cc2C(C)(C)C12C=Cc1cc(C(=O)O)ccc1O2 (stereo unspecified)	-10.1	10.1	-3.6	i	0.6	-1.9	2.0	-1.4
COC(=O)C1=C(Nc2ccc(C)cc2)C=C(C)C(C(=O)OC)C1c1cccc(OC)c1 (stereo unspecified)	-10.1	17.9	-75.1	i	-6.2	-10.0	1.1	-0.9
COc1ccc(Cc2nc(-c3ccccc3)no2)cc1	-5.4	5.6	-63.5	i	1.7	-3.5	2.4	3.1
Cc1cccc(N2CC(C(=O)OCC(=O)Nc3sccc3C(N)=O)CC2=O)c1C (stereo unspecified)	-10.2	nt	-2.6	nt	3.8	2.7	nt	-18.1
O=C(c1ccc(S(=O)(=O)NCC2CCCO2)cc1)N1CCN(c2ccccc2)CC1 (stereo unspecified)	nt	1.7	19.0	i	2.5	-1.5	-2.9	1.8
CCc1ccc(NC(=O)CN(c2ccc(OC)cc2)S(=O)(=O)c2c(C)nn(C)c2C)cc1	-4.4	2.4	-3.8	i	-0.6	-1.9	-21.3	-9.6
CCOC(=O)Cc1c(C)nc2c(C#N)c(C)nn2c1C	-4.9	2.9	-12.6	i	3.1	3.0	-4.7	-9.9
CCOc1ccc2nc(NC(=O)c3cccnc3)sc2c1	-19.5	-1.0	-83.0	i	-0.2	-3.2	8.3	8.8
CCOc1cc(NC(=O)C2CCCO2)c(OCC)cc1NC(C)=O (stereo unspecified)	-32.6	-5.7	-80.3	i	12.0	6.0	4.3	-4.1
CCCN1C2CCCC1CC(NC(=O)c1cc(OC)cc(OC)c1)C2 (stereo unspecified)	-6.7	-5.7	-25.8	i	-8.6	0.6	3.6	-31.1
O=C(OCc1ccc(F)cc1)c1cc(S(=O)(=O)N2CCCCC2)ccc1N1CCOCC1	nt	nt	30.4	i	-1.4	-16.4	nt	14.0
CC(Oc1ccc2c(-c3ccccc3)cc(=O)oc2c1)C(=O)NCCN1CCOCC1 (stereo unspecified)	-9.9	9.7	7.3	i	-0.1	-5.8	2.8	-6.7
CC1CCCCN1C(=O)CSc1nnc(-c2ccccc2O)o1 (stereo unspecified)	-28.9	6.6	-20.6	i	-20.1	-11.3	6.6	-13.9
N/C(=N\OC(=O)CCCOc1ccc(Cl)cc1Cl)c1ccccn1	1.2	2.6	-10.1	i	4.2	6.8	2.9	-2.1
COc1cccc(OC)c1C(=O)NC(=S)Nc1ccc2c(c1)Cc1ccccc1-2	-4.3	-10.3	-46.6	i	-0.5	-1.3	-11.7	18.2
O=C(Cn1c(C(F)(F)F)nc2ccccc21)c1ccccc1	-13.9	-3.9	nt	i	-10.5	-8.5	-2.7	-24.4
O=C1C2C3C=CC(C3)C2C(=O)N1CNc1ccccc1 (stereo unspecified)	nt	-3.6	nt	i	2.1	6.3	-11.2	nt
CCC(=O)N(C)CCc1cc2c(c(OC)c1/C=N/NC(=O)[C@H]1C[C@@H]1c1ccccc1)OCO2	nt	-2.1	15.4	i	-3.6	-11.1	-7.9	-3.9
C[C@@H]1CN=C2N(CCNC(=O)CCC3CCCCC3)[C@H](Cc3ccc(O)cc3)CN21	-18.7	-25.4	-6.7	i	-1.3	3.4	-28.1	5.1
Cc1ccc(/C=N/c2sc(Cc3ccccc3)c(C)c2C(N)=O)o1	-5.8	-3.0	-42.6	i	-9.9	0.8	2.8	-6.9
Cn1nc([N+](=O)[O-])nc1Sc1nnc(-c2ccccc2)o1	-12.7	2.6	nt	i	13.2	-4.9	-4.5	-1.6
O=C(Nc1ccc(/C=C/c2nc3ccccc3o2)cc1)c1cccc(C(F)(F)F)c1	-17.6	-10.8	nt	i	8.3	-4.0	-10.8	14.5
CC1CC(C)CN(C(=O)Cn2c(=O)n(CCCCC(=O)NCc3ccco3)c(=O)c3ccccc32)C1 (stereo unspecified)	1.1	1.3	nt	i	2.9	10.4	-4.6	-11.0
COc1cc(CN(C)CC2CCCN(CCc3ccccc3F)C2)cc(Cl)c1OC (stereo unspecified)	-20.2	3.1	0.2	i	4.1	-2.6	2.3	nt
Cc1ccc(Cn2nnc3c(=O)[nH]c(C4CCCN(S(=O)(=O)c5ccc(F)cc5)C4)nc32)cc1 (stereo unspecified)	-2.6	12.4	-8.0	i	-4.0	-2.0	-2.5	nt
CC1Oc2ccccc2N(Cc2ccccc2Cl)C1=O (stereo unspecified)	nt	4.6	nt	i	12.8	13.2	0.8	7.7
CCOc1ccc(-c2nnn(CC(=O)NCc3ccc(F)cc3)n2)cc1OCC	-3.2	-9.7	nt	i	2.6	-1.1	-7.2	14.1
COc1cc(NC(=O)c2c(F)c(F)c(F)c(F)c2F)c(OC)cc1Cl	-0.5	2.9	-111.8	i	1.6	-4.0	-1.5	-1.5
O=C(c1cnn2c(C(F)(F)F)cc(-c3ccccc3)nc12)N1CCCCC1c1cccnc1 (stereo unspecified)	nt	-3.9	4.6	i	0.2	-5.2	0.1	-2.8
CN(C)c1ccc(-c2nnc(SCC3CCCO3)n2C)cc1 (stereo unspecified)	nt	6.2	-19.8	i	3.2	6.6	-1.2	-0.7
O=C(NCCO)c1ccc(Oc2ccc(C(F)(F)F)cc2[N+](=O)[O-])cc1	nt	11.4	-17.6	i	4.3	-2.7	2.5	-10.9
COc1ccc(C2=CC(=O)CC(c3ccc(OC)cc3)C2)cc1 (stereo unspecified)	-7.6	-0.7	3.3	i	1.8	1.5	-4.2	2.0
CCc1cc(C(=O)c2ccc(C)cc2)c(NC(=O)CCl)s1	nt	4.3	3.3	i	-7.8	-5.5	9.5	-8.0

Part of the list above in order of SMILES length, low to high.
SMILES	Yeast UUG start	PABP polyA inh	Env fusion inh	Rce1 inh	MT1-MMP act inh	MT1-MMP act inh RFP	eIF4H FP inh	CSC inhib	others
CC1Oc2ccccc2N(Cc2ccccc2Cl)C1=O (stereo unspecified)	nt	4.6	nt	i	12.8	13.2	0.8	7.7
COc1ccc(C2=CC(=O)CC(c3ccc(OC)cc3)C2)cc1 (stereo unspecified)	-7.6	-0.7	3.3	i	1.8	1.5	-4.2	2.0
COc1cc(CN(C)CC2CCCN(CCc3ccccc3F)C2)cc(Cl)c1OC (stereo unspecified)	-20.2	3.1	0.2	i	4.1	-2.6	2.3	nt

Next compounds
SMILES	Yeast UUG start	PABP polyA inh	Env fusion inh	Rce1 inh	MT1-MMP act inh	MT1-MMP act inh RFP	eIF4H FP inh	CSC inhib	others
COc1ccc(NC(=O)CN(C)S(=O)(=O)c2cccc3nsnc23)cc1OC	-13.2	29.3	4.7	i	10.0	0.0	5.9	-0.2
CC(=O)O[C@H]1C[C@@]2(C)[C@@H](C[C@@H](O)[C@H]3[C@@]4(C)CC[C@@H](O)[C@@H](C)C4CC[C@@]32C)/C1=C(\CCC=C(C)C)C(=O)O (stereo partly specified)	-6.6	1.5	nt	i	4.2	5.1	-7.3	nt
CCOc1ccc(NC(=O)CN(C)C(=O)c2cccnc2Sc2ccc(Cl)cc2)cc1OCC	3.9	nt	-21.1	i	-0.2	0.9	nt	2.4
COC(=O)[C@H](CC(C)C)NC(=O)c1cc2c(cn1)[nH]c1ccccc12	-9.7	-6.2	-12.6	i	-3.8	-1.9	-7.4	-0.9
CCC(C)(C)C1CCC(NC(=O)c2ccc(S(=O)(=O)N3CCOCC3)cc2)CC1 (stereo unspecified)	-7.7	nt	17.8	nt	5.2	-13.5	nt	59.1
Cc1ccc(S(=O)(=O)N/N=C\c2cn(CC(N)=O)c3ccccc23)cc1C	-6.5	6.2	4.8	i	0.8	7.9	2.0	-7.2
CSc1ccccc1OCc1cc(C(=O)NCc2ccc(C)s2)no1	-25.0	3.1	-9.2	i	-2.3	-0.4	-10.6	15.0
COc1ccc(C(=O)NC2CCCCCC2)cc1S(=O)(=O)N1CCCc2ccccc21	-12.9	-0.5	nt	i	nt	nt	-4.3	30.3
CC1CC(C)CN(C(=O)COC(=O)c2cc3ccccc3cc2O)C1 (stereo unspecified)	11.1	11.8	nt	i	1.3	0.3	2.7	-10.0
CCN(CC)c1ccc(NC(=O)COC(=O)CCc2cc(OC)c(OC)c(OC)c2)cc1	8.2	nt	10.2	nt	3.6	4.2	nt	nt
CN(C)c1ccc(C=C2C=Cc3ccccc32)cc1	-14.1	nt	i	nt	2.8	0.0	nt	nt
CCn1c(=S)sc2c(=O)n(CC(=O)Nc3ccccc3C(F)(F)F)c(C)nc21	4.0	-50.1	4.5	i	1.4	4.8	1.9	-9.1
CC(C)Oc1cccc(C(=O)C2CCCN(Cc3ccc(Oc4ncccn4)cc3)C2)c1 (stereo unspecified)	nt	-5.9	-13.9	i	-1.2	-6.1	-10.3	4.6
O=C1/C(=C/c2cccs2)Sc2ccccc21	1.0	-4.4	-14.9	i	22.3	27.7	14.8	-0.1
O=C(NCCCc1ccccn1)C1CCC(=O)N(Cc2cccc(F)c2)C1 (stereo unspecified)	-17.3	2.8	-9.4	i	-1.8	2.0	69.1	-6.2	eIF4H FP inh retest=-13.7;PABP polyA inh retest=7.7
COc1ccc(C(=O)Nc2cc(S(=O)(=O)N3CCCC3)ccc2Cl)cc1	0.0	nt	-8.8	nt	5.0	-8.1	nt	7.7

3 compounds drawn at random from the list so far:
SMILES	Yeast UUG start	PABP polyA inh	Env fusion inh	Rce1 inh	MT1-MMP act inh	MT1-MMP act inh RFP	eIF4H FP inh	CSC inhib	others
CN(C)c1ccc(C=C2C=Cc3ccccc32)cc1	-14.1	nt	i	nt	2.8	0.0	nt	nt
COC(=O)[C@H](CC(C)C)NC(=O)c1cc2c(cn1)[nH]c1ccccc12	-9.7	-6.2	-12.6	i	-3.8	-1.9	-7.4	-0.9
C[C@@H]1CN=C2N(CCNC(=O)CCC3CCCCC3)[C@H](Cc3ccc(O)cc3)CN21	-18.7	-25.4	-6.7	i	-1.3	3.4	-28.1	5.1
